D2 potentiator: potentiates the human D2 dopamine receptor allosterically | 0.23% of 360,000 active | DiscoveRx D2 beta-arrestin cells, luminescence, 90 min; 100% = 57 uM dopamine signal | AID 624464 | P14416 | potentiation, % (no concentration beside the values); active = potentiation of 50% or more; inconclusive = 30% to 50%; inactive = 30% or less;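 note: compound concentration not given in the record; tested on top of an EC20 dose of dopamine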
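D2 cells co-treated with compound plus 50 nM dopamine (EC20) for 90 min at 37 deg C to detect potentiation. Beta-arrestin recruitment was read as enzyme-fragment luminescence after 1 h at ambient temperature. Full response was set by 57 uM dopamine.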
CtBP-E1A inh: inhibitors of CtBP/E1A interaction; 0.49% of 340,000 active; AlphaScreen GST-E1A/His-CtBP binding, 1536-well; active compounds read low; control for the full effect not named in the record; activity change, % (concentration not given with the values); in the data active means activity change below about -65%; inconclusive means about -30% to -65%; inactive means above about -30%; note: % is set by controls: 0 for no effect and ±100 for the full control effect
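GST-E1A and His-tagged CtBP (125 nM each as 5X stock) were preincubated with pin-transferred compound for 2 h at 37 °C in the dark, then glutathione donor and nickel acceptor beads were added for 1 h before AlphaScreen reading.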
TRPML1 blocker: human mucolipin-1 channel inhibition; Q9GZU1; 0.02% of 390,000 active; TRPML1-inducible cells, Ca2+ dye fluorescence, FDSS; active compounds read low; inhibition of EC80 agonist-evoked calcium signal; activity change, negative = inhibition, % (concentration not given with the values); in the data active means activity change below about -50%; inconclusive means about -30% to -50%; inactive means above about -30%;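 note: stimulus is agonist 54-4 at its EC80 concentration; % is set by controls: 0 for no effect and ±100 for the full control effect; the text of the record puts the active cut at -80%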
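Calcium fluorescence in TRPML1-DL cells induced overnight with Tet: a 110 s read after compound pin addition, then a 110 s antagonist read after challenge with 54-4 at 4 uM final (EC80).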
Six1-Eya2 inh: inhibitors of human Six1/Eya2 interaction. Q15475+O00167. AlphaScreen GST-Six1/His-Eya2 binding, biochemical; active compounds read low; control for the full effect not named in the record. activity change, % (test concentration not listed). 0.56% of 360,000 active; in the data active = activity change below about -65%; inconclusive = about -30% to -65%; inactive = above about -30%; note: % is set by controls: 0 for no effect and ±100 for the full control effect
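Homogeneous AlphaScreen proximity assay pairing GST-Six1 with His-tagged Eya2 (added as 5X mix: 250 nM and 500 nM) in 50 mM Tris pH 8.0, 300 mM NaCl, 1 mM TCEP. Glutathione donor and nickel acceptor beads; 1 h, 37 °C, dark.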
TRPV1 PAM: potentiators of human vanilloid receptor 1 (TRPV1). potentiation, % at 8.33 µM. TRPV1-expressing cells, Fluo-8 calcium influx, capsaicin EC20 potentiation; host cell line not named in the record; control for the full effect not named in the record. 0.02% of 320,000 active; active means potentiation above 80%; inconclusive means 30% to 80%; inactive means below 30%; note: 0% is about no effect
Target sequence (Q8NER1 whole entry, looked up): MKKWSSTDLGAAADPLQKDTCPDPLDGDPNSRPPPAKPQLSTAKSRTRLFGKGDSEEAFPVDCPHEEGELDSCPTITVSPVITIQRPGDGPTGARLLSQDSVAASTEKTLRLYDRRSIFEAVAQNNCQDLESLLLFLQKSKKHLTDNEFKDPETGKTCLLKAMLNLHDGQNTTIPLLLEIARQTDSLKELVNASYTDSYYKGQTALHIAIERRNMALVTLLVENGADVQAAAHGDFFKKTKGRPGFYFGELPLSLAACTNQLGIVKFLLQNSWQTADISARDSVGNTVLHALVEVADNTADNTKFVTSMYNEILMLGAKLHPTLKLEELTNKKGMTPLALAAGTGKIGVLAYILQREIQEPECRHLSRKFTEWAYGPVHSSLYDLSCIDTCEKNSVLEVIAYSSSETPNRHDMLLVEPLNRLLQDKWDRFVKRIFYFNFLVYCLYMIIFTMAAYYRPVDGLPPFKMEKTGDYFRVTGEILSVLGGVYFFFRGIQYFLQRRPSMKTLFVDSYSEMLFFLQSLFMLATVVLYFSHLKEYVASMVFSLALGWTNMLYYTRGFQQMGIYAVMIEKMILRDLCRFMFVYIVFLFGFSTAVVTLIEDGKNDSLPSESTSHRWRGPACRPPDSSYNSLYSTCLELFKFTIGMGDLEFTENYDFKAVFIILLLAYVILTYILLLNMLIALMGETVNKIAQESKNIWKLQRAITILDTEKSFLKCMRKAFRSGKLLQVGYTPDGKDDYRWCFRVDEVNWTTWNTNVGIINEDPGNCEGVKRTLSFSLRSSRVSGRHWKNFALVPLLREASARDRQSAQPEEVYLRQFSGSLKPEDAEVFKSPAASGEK
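Fluo-8 calcium influx in TRPV1-expressing cells, kinetic read (ex 480/em 520 nm). Compound added and read 3 min for agonist activity, followed by capsaicin at EC20 final and 2 min further read for enhancement.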
TRPML1 ag: agonists of human TRPML1 channel; TRPML1-expressing cells, Ca2+ dye fluorescence, FDSS; host cell line not named in the record; reference of the full effect not given here; activation, % (no concentration beside the values); 0.12% of 410,000 active; in the data active = activation above about 50%; inconclusive = about 30% to 50%; inactive = below about 30%; note: 0% is about no effect; the text of the record puts the active cut at 80%
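Kinetic FDSS Ca2+ read in Tet-induced TRPML1-DL cells (ABD Ca8 dye plus quencher, 45-90 min RT loading): baseline, then compound, then 110 s agonist window; EC80 agonist 54-4 at 4uM final added afterwards for a 110 s antagonist window.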
Active calls of the source: *; ? = inconclusive; nt = not tested or not shown; & = joins results of further samples.

SMILES	D2 potentiator	CtBP-E1A inh	TRPML1 blocker	Six1-Eya2 inh	TRPV1 PAM	TRPML1 ag
CC(O)CNc1nc2ccccc2n1-c1ncnc2sc3c(c12)CCC3 (stereo not given)	-45	0	-4	-5	-1	0.1
COc1ccc(CN=CC2=C(O)CNC2=O)cc1	0	0	-2	25	7	0.2
CN(C1CCCC1)C1CCN(C(=S)Nc2cc(F)cc(F)c2)CC1	-6	-1	11	-9	2	0.5
NC(=O)c1sc2nnc(-c3ccccc3)c(-c3ccccc3)c2c1N	-6	-9	-9	1	-8	5.2
CS(=O)(=O)c1ccccc1C(=O)Nc1ccccc1Cc1ccccc1	-1	-2	-13	-7	-6	0.4
Cc1cc(S(=O)(=O)N2CCN=C2c2ccccc2)ccc1F	-17	3	18	4	10	1.7
N#CCCN1CCN(S(=O)(=O)c2ccc(C#N)cc2)CC1	-16	-3	0	12	8	0.4
CCC(=O)c1ccc(OCC(=O)N2CCN(C(=O)c3ccccc3)CC2)cc1	-3	2	4	3	-5	0.4
COc1ccc(-c2c(C)nn3c(N4CCC5(CC4)OCCO5)cc(C)nc23)cc1OC	-2	-1	6	2	nt	-0.2
CCCCN(C(=O)C1CC(=O)N(c2ccc(C)cc2)C1)c1c(N)n(CCC)c(=O)[nH]c1=O (stereo not given)	-26	0	7	21	17	0.0
CCN(c1ccccc1)S(=O)(=O)c1cccc(C(=O)N2CCN(S(=O)(=O)c3ccccc3)CC2)c1	-16	2	-16	2	-41	0.1
CC(C)(C)n1ncc2c(=O)n(CC(=O)NCc3ccccc3)cnc21	9	4	-12	-3	5	0.2
O=C(CSc1ncccn1)N/N=C/c1cccc([N+](=O)[O-])c1	2	-2	5	-12	-4	0.2
CC(CCNC(=O)c1ccccc1)(CCNC(=O)c1ccccc1)[N+](=O)[O-]	-12	-12	5	6	nt	0.9
Cc1ccccc1C(C(=O)NC1CCCCC1)N(C(=O)c1ccccn1)c1cccnc1 (stereo not given)	-4	-6	35	-1	-5	-0.2
COc1cccc(CNC(=O)COc2cc3c(c4oc(=O)cc(C)c24)CCC(C)(C)O3)c1	5	-8	nt	-8	-16	nt
O=C(c1cc(Br)ccc1O)N1CCN(S(=O)(=O)Cc2ccccc2)CC1	-8	-5	0	-14	2	0.2
CCOC(=O)c1cc2c(C(F)(F)F)cc(-c3ccccc3)nc2o1	-12	2	-5	2	-4	-0.9
COc1cccc(-n2sc3c(c2=S)-c2cc(OC)ccc2NC3(C)C)c1	2	-8	-9	-27	29	0.4
O=C1C2CCCN2C(=O)N1CCCCN1CCN(c2cccc(Cl)c2)CC1 (stereo not given)	-37	-9	-8	-23	5	-0.4
CCOC(=O)c1cccc(NC(=S)NC(=O)c2cccnc2)c1	-5	5	-5	4	-10	0.4
O=c1[nH]nc2c3ccccc3cnn12	9	-5	10	-2	-3	0.3
N#Cc1c(N)sc2c1CCN(CCc1ccccc1)C2	-23	-3	-17	-2	8	1.2
O=C(O)Cn1nncc1-c1ccc(C(F)(F)F)cc1	-3	2	nt	-2	nt	-0.2
Cc1[nH]c2ccccc2c1/C=C/C(=O)c1ccncc1	-8	0	-5	17	10	3.8
CC(=O)N1CCN(c2ccc(S(C)(=O)=O)cc2[N+](=O)[O-])CC1	-14	-5	5	7	8	-0.6
COc1ccc(CCNC(=O)c2ccc(CS(=O)Cc3ccc(C)cc3)o2)cc1OC (stereo not given)	2	-1	-8	1	-9	0.1
COc1ccc(CNC(=O)CC(C)CC2=NS(=O)(=O)c3ccccc3N2)cc1 (stereo not given)	-4	4	-12&8	4	0	-0.6&-0.6
CC(C)(C)NC(=O)/C(=C\c1ccc(Br)cc1)NC(=O)c1cccs1	-12	1	-10	-2	-25	2.3
CC(CN(C)Cc1ccccc1)OC(=O)c1ccc(F)cc1 (stereo not given)	-34	11	7	14	-6	0.8

Five of the compounds above, with two lines to a compound.
Every second line gives: D2 potentiator, CtBP-E1A inh, TRPML1 blocker, Six1-Eya2 inh, TRPV1 PAM, TRPML1 ag
CC(=O)N1CCN(c2ccc(S(C)(=O)=O)cc2[N+](=O)[O-])CC1
→ -14, -5, 5, 7, 8, -0.6
COc1ccc(CCNC(=O)c2ccc(CS(=O)Cc3ccc(C)cc3)o2)cc1OC (stereo not given)
→ 2, -1, -8, 1, -9, 0.1
COc1ccc(CNC(=O)CC(C)CC2=NS(=O)(=O)c3ccccc3N2)cc1 (stereo not given)
→ -4, 4, -12&8, 4, 0, -0.6&-0.6
CC(C)(C)NC(=O)/C(=C\c1ccc(Br)cc1)NC(=O)c1cccs1
→ -12, 1, -10, -2, -25, 2.3
CC(CN(C)Cc1ccccc1)OC(=O)c1ccc(F)cc1 (stereo not given)
→ -34, 11, 7, 14, -6, 0.8

Continued:
SMILES	D2 potentiator	CtBP-E1A inh	TRPML1 blocker	Six1-Eya2 inh	TRPV1 PAM	TRPML1 ag
c1ccc(C2c3[nH]c4ccccc4c3CCN2Cc2cccn2-c2cccnc2)nc1 (stereo not given)	-6	?	28	-28	-4	0.8
c1cncc(CNc2ncnc3sccc23)c1	-2	4	2	-2	-8	-0.2
Cc1ccc(NC(=O)CCNS(=O)(=O)c2ccc3[nH]c(=O)oc3c2)cc1C	-13	nt	-5	-2	3	-0.9
Cc1ccccc1OCC(=O)OCn1nnc2ccccc2c1=O	-2	4	-8	1	-12	1.0
C=CCn1c(SCc2ccc(C(=O)O)cc2)nc2sc(C)c(C)c2c1=O	4	5	35	1	-13	0.0
CCCc1ccc(C(=O)Cn2nc(C(=O)O)c3ccccc3c2=O)cc1	6	-21	-21	5	?	-0.2
CNC(=O)c1cc(S(=O)(=O)N(C)C)ccc1Cl	0	5	0	1	-2	0.8
O=C(NCc1ccc(Cl)cc1)C1CCCN(c2ncnc3c2nc2n3CCCCC2)C1 (stereo not given)	-9	nt	-25	-11	-23	0.9
CCOc1ccc(-c2noc(CCCC(=O)NC3CCCCC3)n2)cc1OC	3	-11	13	14	-10	-0.6
CCOC(=O)c1ccc(NC(=O)c2ccc3c(c2)C(=O)N(Cc2cccnc2)C3=O)cc1	6	-9	-13	-8	21	0.0
CC1c2cc3c(cc2CCN1C(=O)c1ccc(Br)cc1)OCCCO3 (stereo not given)	-11	nt	-4	?	-9	-1.2
CC(C)C(Nc1ncnc2c1oc1ccccc12)C(=O)O (stereo not given)	-6	-11	17	2	7	-0.6
CSc1nc(N2CCN(C)CC2)c2c(c1C#N)CC(C)(C)OC2	-12	1	-5	2	-20	0.0
CSc1nc2ncncc2[nH]1	-5	3	-9	3	nt	-0.7
C=CCn1c(-c2sc(-c3ccccc3)nc2C)n[nH]c1=S	-21	-1	-25	-12	-7	-0.5
CCN(CC)CCCN(C(=O)c1ccc(OC)cc1)c1nc(-c2ccc(OC)cc2)cs1	-22	-19	-3	-21	3	0.4
CNc1nc(OCC#N)nc(N2CCCCC2)n1	-8	-2	-14	9	-4	-0.7
CSc1nnc(C)c(/C=C/Nc2ccc(C)cc2)n1	-24	-67*	14	-14	6	11
COc1ccc(NC(=O)c2ccc(NC(=O)CN3CCN(c4ccccc4O)CC3)cc2)cc1	-12	-5	-8	-3	nt	-0.8
O=C1CCCN1CCCNc1ncnc2c1[nH]c1ccccc12	-12	-3	1	-4	6	0.3
NS(=O)(=O)c1ccc(N/C=C/C(=O)c2ccc(Br)cc2)cc1	18	5	6	4	7	-0.3
CN1CCN(NC(=O)c2cn(-c3ccccc3)nc2-c2ccc(OC(F)F)cc2)CC1	-31	4	-5	1	-4	3.0
Cc1ccc(S(=O)(=O)N2CCOCC2)cc1C(=O)Nc1ccccc1N1CCCC1	10	2	5	-6	-22	-0.5
COc1ccc(C(=O)Oc2cccc(/C=N/NC(N)=S)c2)cc1	-6	-7	-2	-11	21	0.7
Cc1ccc(OCC(=O)Nc2ccc(S(=O)(=O)Nc3onc(C)c3C)cc2)cc1	-3	-6	-3	4	14	2.7
CN1C(=O)/C(=C\c2ccncc2)SC1=Nc1ccccc1	-12	6	22	-7	-13	0.3
O=C(O)C1CCN(C(=O)c2ccccc2Cl)CC1	-14	8	-7	1	26	-0.3
Cc1ccc(N=Cc2cc(Cc3ccccc3Cl)cc([N+](=O)[O-])c2O)c(O)c1	-4	-6	-15	-10	9	1.9
CC1CCN(c2cc(N(C)CCO)c([N+](=O)[O-])c3nonc23)CC1	-1	nt	12	-5	5	-1.5
CCOc1ncccc1C(=O)Nc1cccc(-c2nnc3n2CCCCC3)c1	-1	-22	3	-8	-8	0.9
Cc1ccc(S(=O)(=O)NC(=O)Nc2nccs2)cc1	?	nt	13	0	24	2.0
CCc1ccc(NC(=O)CN2C(=O)CC(C)S(=O)(=O)c3ccccc32)cc1 (stereo not given)	-8	0	-4	2	-5	0.0
CCc1cccc(C)c1NC(=O)COC(=O)CNS(=O)(=O)/C=C/c1ccccc1	-16	0	2	1	-17	-0.3
O=C(NNC(=S)NC(=O)c1ccccc1[N+](=O)[O-])c1ccccc1[N+](=O)[O-]	-22	-2	-10	-3	-1	-0.4
COCCCNC(=O)CC(NS(=O)(=O)c1ccc(OC)cc1)c1ccc(OC)cc1 (stereo not given)	-5	2	20	6	2	-0.4
O=C1Nc2c(c(=O)[nH]c(=O)n2-c2ccccc2F)C(C(F)(F)F)(C(F)(F)F)N1	-3	4	19	3	4	0.1
N/C(=N\OC(=O)c1cc(Br)ccc1Cl)c1cccnc1	1	-8	7	8	-6	-0.5
CN(C)CCCn1c2c(c(SCC(=O)Nc3ccc4c(c3)OCO4)nc1=O)CCCC2	-9	3	0	-1	2	-0.6
CC(C)(C)OC(=O)N1CCN(c2ccc(NC(=O)Cn3nnc(-c4ccccc4)n3)cc2)CC1	-2	-3	25	-1	-7	-0.6
COc1ccc(-c2nnc(Nc3nc4c(OC)cccc4s3)o2)c(OC)c1	-3	11	1	-11	11	0.7
COC(=O)c1ccc(NC(=O)COC(=O)C2=NN(c3ccccc3)C(=O)CC2)cc1	-2	9	11	5	2	0.1
COc1ccc(Cc2c(-c3cccc(Br)c3)nc3cc(C)c(Br)c(C)n23)c(C)c1	nt	0	nt	1	nt	-0.6
COC(=O)c1ccc(NC(=O)CN2CCN(CCO)CC2)cc1	-1	5	4	-2	9	-0.1
Cc1nc2ccc(NC(=O)NCCCO)cc2s1	12	1	-7	-4	0	-0.6
Cc1cccc(CNC(=O)C2CCC(=O)N(CCc3cccc(F)c3)C2)n1 (stereo not given)	-4	5	0	-2	-1	-0.5
Cc1nc(C)c(C(=O)NNS(=O)(=O)c2ccccc2)s1	-5	-16	-9	?	10	0.8
COCCCNC(=O)c1ccc2nc(Cc3ccc(OC)cc3)oc2c1	-4	3	21&10	10	3	0.2&-0.1
O=S(=O)(c1ccc(=S)[nH]c1)N1CCCCC1	-8	nt	21	2	-6	0.4
CCc1cc(C(=O)Nc2cc(S(=O)(=O)N(CC)CC)ccc2N2CCN(C)CC2)sc1C	-9	4	28	-9	-7	1.3
O=C(NN1C(=O)NC2(CCCCC2)C1=O)c1ccc(-c2ccc([N+](=O)[O-])cc2)o1	3	1	-3	-22	-4	-0.1

An excerpt of these results, with two lines to a compound:
Value order – D2 potentiator | CtBP-E1A inh | TRPML1 blocker | Six1-Eya2 inh | TRPV1 PAM | TRPML1 ag
- CCc1cc(C(=O)Nc2cc(S(=O)(=O)N(CC)CC)ccc2N2CCN(C)CC2)sc1C
 : -9 | 4 | 28 | -9 | -7 | 1.3
- Cc1nc(C)c(C(=O)NNS(=O)(=O)c2ccccc2)s1
 : -5 | -16 | -9 | ? | 10 | 0.8

Compound activity deposited in PubChem by National Center for Advancing Translational Sciences (NCATS).
